UCH37 inh – human UCH37 deubiquitinating enzyme inhibition | inhibition, % (test concentration not listed) | 330,000 compounds, 0.33% hits | Q9Y5K5 | purified proteasome/UCH37, Ub-AMC cleavage fluorescence;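 active = mean of two replicates above 20%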;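 also: 0% = compound-free wells with enzyme and 100% = wells lacking proteasome; stock transfer was 100 nL into about 20 µL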
Target sequence (Q9Y5K5 whole entry, looked up): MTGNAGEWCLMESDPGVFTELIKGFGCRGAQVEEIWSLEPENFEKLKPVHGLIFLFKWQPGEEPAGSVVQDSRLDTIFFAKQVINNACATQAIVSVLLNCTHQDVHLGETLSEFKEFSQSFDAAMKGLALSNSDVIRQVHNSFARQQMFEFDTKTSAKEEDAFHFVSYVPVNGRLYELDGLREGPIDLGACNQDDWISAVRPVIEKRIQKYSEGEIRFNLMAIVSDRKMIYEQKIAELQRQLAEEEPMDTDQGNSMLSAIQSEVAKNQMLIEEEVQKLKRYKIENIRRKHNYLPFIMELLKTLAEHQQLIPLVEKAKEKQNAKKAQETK
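Reagent: Ub-AMC substrate; assay system: Proteasome-associated human UCH37 deubiquitinase; controls: no-proteasome and no-compound wells; read-out: % inhibition of Ub-AMC cleavage fluorescence; timing: 30 min preincubation with enzyme, 25 min cleavage at room temperature; signal: AMC fluorescence from Ub-AMC cleavage, excitation 355 nm, emission 460 nm; buffer or medium: Tris-HCl pH 7.4 plus ovalbumin, ATP-MgCl2, DTT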
LANA-H2B inh – blocks KSHV LANA binding to histone H2A/H2B. cell-free LANA-H2A/H2B peptide, fluorescence polarization. inhibition, % (concentration not given with the values). 320,000 compounds, 0.6% hits. AID 2629; in the data active = inhibition mostly above about 10%, no sharp cut-off; inactive = mostly below about 6.7%;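 also: stock transfer was 7.5 nL into about 10 µL; 0% = median of vehicle wells and 100% = median of positive control wells; one replicate is shown; the record names a cut of 25% in any replicate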
RanGTP-Impb inh – disruptors of Ran-importin-beta complex formation – biochemical, FRET, CFP-Ran, YFP-importin-beta, homogeneous, primary screen | cell-free CFP-Ran/YFP-importin-beta FRET ratio | inhibition, % (concentration not given with the values) | 300,000 compounds, 1.1% hits;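 active = most replicates above 15%; inconclusive = exactly half above 15%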;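 also: 0% = DMSO wells and 100% = Ran loaded with GDP instead of GTP; wells of about 40 µL received 100 nL stock; the first replicate is given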
T cruzi repl – T. cruzi replication inhibition. T. cruzi beta-gal in NIH3T3, luminescence, 90 h. 300,000 compounds, 1.4% hits. inhibition, % (test concentration not listed). AID 1885;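 active = mean inhibition across valid replicates above about 55%, limit read from the data; inconclusive = mean below that limit but half or more replicates reach it; inactive = mean below it, under half of replicates reach it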;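 also: signal also drops with host cell toxicity which is not excluded here; 0% = plate median of DMSO wells and 100% = zero luminescence signal; higher percent means less beta-gal luminescence so fewer parasites; stock transfer was 50 nL into about 50 µL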
Calb FLC – C. albicans growth modulation with fluconazole. 300,000 compounds, 0.57% hits. C. albicans CaCi-2 (fluconazole-resistant clinical isolate) + fluconazole, Alamar Blue growth, 48 h. AID 1979. growth inhibition, % (test concentration not listed);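 active = most replicates above 75%; inconclusive = exactly half above 75%; inactive = most below 75%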;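 also: all wells also contain fluconazole at 8 µg/ml as a sub-toxic cotreatment; 0% = median of DMSO wells and 100% = median of geldanamycin control wells; wells of about 8 µL received 7.5 nL stock; the first replicate is given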
Beta2AR agonist – activates human beta-2 adrenergic receptor causing internalization; P07550; AID 504454; response, % (test concentration not listed); 340,000 compounds, 0.43% hits; Am2.2-beta2AR cells, FAP receptor internalization, flow cytometry; reference of the scale not given here;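 active = response above a set limit, near 3 SD of response in nonfluorescent compounds, cut at about 42% in these data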;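 also: stock transfer was 100 nL into about 11 µL; a reference agonist was the positive control; negative values mostly stem from fluorescent compounds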
Target sequence (P07550 whole entry, looked up): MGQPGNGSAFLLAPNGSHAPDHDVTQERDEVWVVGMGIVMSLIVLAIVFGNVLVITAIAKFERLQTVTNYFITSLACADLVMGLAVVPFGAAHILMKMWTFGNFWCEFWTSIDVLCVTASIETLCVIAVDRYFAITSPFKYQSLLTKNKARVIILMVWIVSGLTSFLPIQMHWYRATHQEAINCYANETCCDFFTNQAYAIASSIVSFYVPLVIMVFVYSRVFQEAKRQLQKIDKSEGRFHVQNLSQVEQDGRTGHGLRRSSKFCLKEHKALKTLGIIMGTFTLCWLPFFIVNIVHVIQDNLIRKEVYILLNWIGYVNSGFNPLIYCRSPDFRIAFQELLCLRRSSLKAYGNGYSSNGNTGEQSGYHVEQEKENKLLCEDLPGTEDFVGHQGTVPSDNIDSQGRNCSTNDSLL
Beta cell apopt – blocks beta cell apoptosis | INS-1E cytokine-induced death, ATP luminescence, 48 h; percent of positive-control rescue, neutral wells zero | protection from apoptosis, % (concentration not given with the values) | 300,000 compounds, 0.8% hits;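 active = all replicates at 75% or more, or half of them and the mean; inconclusive = half reach 75% but not the mean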;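 also: 0% = cytokine-treated negative control wells and 100% = positive control rescue; higher means more ATP so stronger rescue from cytokine killing; wells of about 40 µL received 100 nL stock; the first replicate is given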
Bfl-1 A1 inh – inhibitors of the anti-apoptotic protein A1, read as caspase activation; MEF A1-2A-BIM cells, Caspase-Glo 3/7 luminescence, 3 h; percent of clofoctol response, vehicle zero; 330,000 compounds, 0.066% hits; caspase activation, % (no concentration beside the values); AID 2462;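 active = over half of replicate activation scores above 10%, or exactly half above 10 with the replicate mean above 10; inconclusive = replicate mean below 10 yet half the replicates above 10; inactive = over half of replicates below 10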;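 also: wells of about 30 µL received 50 nL stock; many hits fall short of the cut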
The depositor's hits bear a star; ? = inconclusive; / = no result given.

SMILES	UCH37 inh	LANA-H2B inh	RanGTP-Impb inh	T cruzi repl	Calb FLC	Beta2AR agonist	Beta cell apopt	Bfl-1 A1 inh
COc1ccc(CCN(C)C(=O)CN2C(=O)NC3(CCCCC3C)C2=O)cc1OC (stereo not given)	4.0	-4.8	0.6	0	3	3	2	0.6
Cn1nccc1C(=O)Nc1ccc(S(=O)(=O)N2CCCC2)cc1	/	0.5	1.3	0	-2	3	4	-1.4
Cc1ccc(NC(=O)CSc2nc3ccccc3c(=O)n2CCCC(=O)N2CCCC2)cc1	3.1	-1.0	-3.5	9	1	-21	4	1.0
CCCCC(=O)N/N=C(\C)CC(=O)Nc1ccccc1Br	/	-1.6	-0.7	-13	-5	-2	-1	0.5
COc1ccc(N2CCOCC2)c(NC(=O)c2cccs2)c1	4.3	-0.7	1.3	5	-16	-4	-1	0.5
O=C(CCn1cnc2ccccc2c1=O)Nc1ccc2c(c1)OCCO2	3.6	-3.4	0.0	5	-2	0	-1	0.5
CC(=O)O[C@H]1CC[C@@]2(C)[C@@H](CC[C@@H]3[C@@H]2CC[C@]2(C)[C@@H](C(C)(C)O)C[C@@H]32)C1	-0.1	-0.6	5.9	-12	1	2	-3	-0.2
C=C1CCC[C@]2(C)C[C@H]3OC(=O)C(CNCCN(C)C)[C@H]3CC12 (stereo not given in full)	6.3	-0.2	-2.2	24	-8	9	-16	1.5
Cc1cc(C)c(C#N)c(N2CCN(CCOc3ccc(Cl)cc3)CC2)n1	-0.5	4.8	0.0	23	-23	1	-6	0.7
COc1ccccc1NC(=O)N1CCc2[nH]c3ccc(F)cc3c2C1	5.5	-8.2	-8.7	19	24	6	-2	0.4
OCCNc1nc(-c2ccccc2)c2ccccc2n1	/	-5.8	0.8	-4	13	-14	4	-2.7
O=C(CN1CCN(S(=O)(=O)c2ccccc2)CC1)Nc1ccnn1C1CCCC1	4.1	0.4	/	/	/	11	-8	0.7
COc1ccc(-c2nc(-c3ccccc3)c(-c3cc([N+](=O)[O-])ccc3C)[nH]2)cc1OC	3.5	-0.8	0.3	38	?	5	7	0.0
CC1(c2ccc(O)cc2)NC(=O)N(c2ccccc2)N1 (stereo not given)	3.9	2.8	2.6	-12	-63	-2	-3	0.0
Clc1ccccc1/C=C/c1ccnc2ccccc12	-32	2.6	0.9	-1	-1	-7	5	0.8
O=C(O)c1cccnc1Sc1ccccc1Cl	1.2	/	?	-2	2	7	/	/
COc1ccccc1NS(=O)(=O)c1cccc(C(=O)N/N=C/c2ccc(C)o2)c1	/	6.2	-3.2	-10	-4	10	-1	0.2
COc1cc(SC)ccc1C(=O)NC(C)C	-0.8	-4.5	4.8	2	-4	5	-6	-0.2
O=C(NC(=O)c1ccc(F)cc1)Nc1nc(-c2cccs2)cc(C(F)(F)F)n1	-14	7.2	-2.7	14	3	-9	-9	-0.6
Cc1c(Cl)ccc(S(=O)(=O)N2CCN=C2c2ccccc2)c1Cl	2.0	0.4	3.3	-13	7	-6	1	0.2
COCCCNc1nc2c(c(=O)[nH]c(=O)n2C)n1CC(O)COc1cccc(C)c1 (stereo not given)	2.4	-0.3	1.8	6	-4	13	/	0.1
COc1ccccc1Oc1ccc2c(c1)C(=O)N(c1cccc3ncccc13)C2=O	2.8	/	-7.2	-4	-12	14	/	/
COc1ccccc1Oc1ncnc2c1oc1ccccc12	-0.6	6.0	1.9	-13	-14	0	-5	0.2
O=c1c2cc(Br)ccc2nc(-c2cccc(Cl)c2)n1O	/	3.9	-8.7	3	5	-5	9	0.5
CCc1ccc(NC(=O)NCC2CCN(Cc3cccc(Cl)c3)CC2)cc1	1.4	-1.3	1.6	40	-7	4	-2	0.9

Full records, quoted from the list. Screens in order: UCH37 inh	LANA-H2B inh	RanGTP-Impb inh	T cruzi repl	Calb FLC	Beta2AR agonist	Beta cell apopt	Bfl-1 A1 inh
O=C(O)c1cccnc1Sc1ccccc1Cl is listed as 1.2	/	?	-2	2	7	/	/
CC1(c2ccc(O)cc2)NC(=O)N(c2ccccc2)N1 (stereo not given) is listed as 3.9	2.8	2.6	-12	-63	-2	-3	0.0

The list goes on:
SMILES	UCH37 inh	LANA-H2B inh	RanGTP-Impb inh	T cruzi repl	Calb FLC	Beta2AR agonist	Beta cell apopt	Bfl-1 A1 inh
COc1ccc(C2C(C#N)=C3NC(=O)c4c(sc5c4CCCCC5)N3C3=C2C(=O)CC(C)(C)C3)cc1 (stereo not given)	-27	-3.1	-21	-5	3	-26	/	-0.4
CCOc1ccc(S(=O)(=O)N2CN(c3cccc(C(C)=O)c3)c3nc4ccccc4nc32)cc1	-32	-2.1	/	/	/	-6	18	0.0
C/C(=N/O)c1ccc2c(c1)OCCOCCOc1cc(/C(C)=N/O)ccc1OCCOCCO2	/	-0.2	-0.7	7	2	1	0	0.6
O=C(COC(=O)CCCOc1ccccc1)NC1CCS(=O)(=O)C1 (stereo not given)	2.9	/	2.8	-12	14	-4	-8	0.5
CCOC(=O)C1CCN(C(=O)CCc2nnc3ccc(N4CCN(C)CC4)nn23)CC1	4.2	0.7	0.6	-3	-1	2	-1	0.4
CC1CCc2ccccc2N1C(N)=Nc1ccccc1 (stereo not given)	0.7	-1.4	0.3	-17	-6	0	-2	0.3
COc1ccc(N(C(C)C(=O)N2CCCC2)S(C)(=O)=O)cc1 (stereo not given)	1.7	-1.9	?	-10	1	-2	/	1.4
CCN(CC)C(=O)CSC1=N/C(=C/c2ccco2)C(=O)N1c1ccc(OC)c(Cl)c1	-0.6	-6.5	4.6	-2	-9	-2	8	1.3
Cc1cccnc1CNC(=O)C1CCC(=O)N(CCc2cccc(F)c2)C1 (stereo not given)	1.6	0.1	0.6	6	0	0	-2	0.7
CCOC(=O)c1ccc(NC(=O)c2cnccn2)cc1	1.0	/	-1.3	1	1	2	/	/
COc1ccc(/C=C(/NC(=O)/C=C/c2ccccc2)C(=O)NCCCCCC(=O)O)cc1	6.1	-5.4	-0.6	15	5	1	-11	0.9
O=C(NC1CCS(=O)(=O)C1)/C(=C\c1ccc(F)cc1)NC(=O)c1ccccc1 (stereo not given)	3.9	2.8	0.0	3	-4	13	/	-0.5
O=C(NCCCN1CCN(c2ccccc2F)CC1)Nc1ccccc1[N+](=O)[O-]	4.3	2.1	5.7	10	2	-12	-1	0.1
O=C1C=C(c2cc(C(F)(F)F)cc(C(F)(F)F)c2)C[C@@H](c2ccc3c(c2)OCO3)C1	2.8	0.1	/	/	/	2	7	0.2
Cc1c(C(=O)N/N=C/c2ccc(Cl)cc2)[nH]c2ccc(Cl)cc12	/	3.0	5.4	10	6	39	35	0.5
O=C(COc1ccc(S(=O)(=O)N2CCOCC2)cc1)NCC1CCCO1 (stereo not given)	-2.2	-2.1	-6.5	-3	5	-4	-5	1.6
COC(=O)N/N=C/c1ccc(-c2ccc(Cl)cc2Cl)o1	/	-1.6	4.0	17	0	-1	-19	0.8
CCCCn1c(N)c(N(CCOC)C(=O)COC(=O)/C=C/c2ccc(Br)cc2)c(=O)[nH]c1=O	4.1	2.1	-0.1	-1	-8	-1	/	0.1
N/C(=N/OCC(=O)Nc1cccc2ccccc12)c1nonc1N	/	2.4	?	-1	-12	2	-5	-0.3
COc1ccc(Oc2ccccc2C=O)cc1	-0.6	1.7	4.4	-21	18	6	-8	0.0
COc1ccc(N2CCN(C(=O)Cn3cncn3)CC2)cc1	-0.2	-0.4	-1.1	-13	-2	-4	-2	0.5
COc1cc(-c2nnc(COC(=O)c3cc(C)nc4ccc(C)cc34)o2)cc(OC)c1OC	-15	/	-5.2	1	-9	13	1	0.0
N[C@@H](Cc1ccccc1)C(=O)N1CCC(C(=O)NCC(=O)NCC(=O)O)CC1	1.1	-0.5	-0.2	-7	-3	-7	1	0.6
Cc1onc(-c2c(F)cccc2Cl)c1C(=O)NCc1ccc2c(c1)OCO2	1.1	-1.9	-4.3	5	-16	-6	-2	0.9
CCC1(c2ccccc2)NC(=O)N(Cc2ccc(C(=O)OC)cc2)C1=O (stereo not given)	4.2	-1.2	0.6	-2	2	1	-7	-0.3
Following part
SMILES	UCH37 inh	LANA-H2B inh	RanGTP-Impb inh	T cruzi repl	Calb FLC	Beta2AR agonist	Beta cell apopt	Bfl-1 A1 inh
COc1ccccc1N1CCN(C(=O)COc2ccc(C)cc2Br)CC1	2.0	1.6	?	5	13	9	-5	0.2
COc1ccc(-c2csc3ncnc(N4CCN(S(=O)(=O)c5cccc(Br)c5)CC4)c23)cc1	0.4	0.2	1.1	62*	9	1	/	-0.3
Cc1cc(C)cc(Oc2ccccc2/C=N\O)c1	/	-2.2	3.9	-2	-1	-5	3	-0.1
CCOc1ccc(NC(=O)C2C3CC/C=C\CCC32)cc1 (stereo not given)	3.4	-1.1	-4.8	-2	-7	3	/	-1.2
CN(C)c1ccnc(Oc2ccc(Cl)cc2)c1C#N	0.6	4.8	1.5	-7	0	-1	-6	-0.4
CCCCN(C)C(=O)c1ccc2c(c1)N(CC)C(=O)c1ccccc1S2=O (stereo not given)	2.5	3.4	-7.4	-9	0	3	-3	?
COC(=O)C1CC(c2ccc(Cl)cc2)=NO1 (stereo not given)	-0.6	1.6	-1.0	-15	-10	2	-5	-0.3
CCCCCC(=O)NC(Cc1ccc(OC)c([N+](=O)[O-])c1)C(=O)O (stereo not given)	6.6	-3.3	5.5	7	4	16	4	0.3
C/C(=N\NC(=O)CNC(=O)C(c1ccccc1)c1ccccc1)c1ccccc1	/	5.2	-0.3	-3	14	-5	-7	0.3
Cn1nnnc1SCc1nc2ccccc2[nH]1	1.8	-2.6	4.5	-17	-9	-3	0	0.0
CC(=O)Nc1ccc(S(=O)(=O)N(C)c2ccc(OCC(=O)OCC(=O)Nc3ccc(OC(F)F)cc3)cc2)cc1	5.3	1.0	0.1	-3	1	-1	0	0.0
Cc1ccc(S(=O)(=O)CCC(=O)OCC(=O)NCCc2ccc(S(N)(=O)=O)cc2)cc1	1.7	-4.8	/	/	/	0	2	2.4
CN(C)S(=O)(=O)c1ccc(C(=O)OC2CCOC2=O)cc1 (stereo not given)	4.3	1.4	4.9	-19	25	3	3	-0.1
COc1ccc(CC(=O)Nc2sccc2C#N)cc1S(=O)(=O)N1CCOCC1	3.0	-1.6	1.0	5	9	0	3	0.6
Cc1cccc(NC(=O)CNCC(=O)Nc2cccc(C)c2C)c1C	4.5	-0.9	4.3	-3	-7	1	-6	1.8
CCS(=O)(=O)N1CCC(C(=O)NCc2ccc(OC)cc2)CC1	4.0	-8.3	-5.8	-1	-2	-3	2	-0.3
CCCCn1c(N)c(N(CCC(C)C)C(=O)c2ccc(C)c(S(=O)(=O)N3CCOCC3)c2)c(=O)[nH]c1=O	-0.4	-2.5	3.1	-10	4	-2	-1	0.9
CN(C)c1nc2c(N)ncnc2n1[C@H]1O[C@@H](CO)[C@H](O)[C@@H]1O	3.1	5.3	-3.2	1	-1	8	-6	1.2
O=C(NNC(=O)c1cccc(S(=O)(=O)Nc2ccc(Cl)cc2)c1)c1ccc(=O)[nH]c1	3.5	4.4	/	/	/	3	0	-1.4
CCOCCCNC(=O)C(NC(=O)Cc1cccs1)c1ccc(OC)cc1 (stereo not given)	0.5	-1.1	-0.5	-15	-2	2	-1	0.9

High-throughput results deposited in PubChem BioAssay by several laboratories.
